Screening results: PubChem BioAssay, National Center for Advancing Translational Sciences (NCATS)
PINK1 expr mod – PINK1 expression modulation; PINK1 immunofluorescence, high-content cytometry, 24 h; hit rate 0.2% among 410,000; Potency, µM (series often up to 76.6 µM), without a hit: at the highest dose activation (PINK1 increase), actives largely listed as activators; active = well fitted activation curve with a large enough effect; inconclusive = small, poorly fitted or top-dose-only effect; inactive = flat fitted curve, though single readings scatter; cell line not stated here;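 further: potency means the concentration at half of the fitted maximal effect; % of control where 0% means no effect; nearly all actives have a fitted effect of over 65% in size; a mitochondrial uncoupler was the plate control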
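PINK1 protein level read as immunofluorescence by microplate cytometer in a fixed, stained stable cell line after 24 h exposure to five compound concentrations, with CCCP as control.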
TRPML1 agonist – activates the human TRPML1 channel | Q9GZU1 | TRPML1-expressing cells, Ca2+ dye fluorescence, FDSS; host cell line not named in the record; reference of the full effect not given here | activation, % (concentration not given with the values) | hit rate 0.12% among 410,000; in the data active = activation above about 50%; inconclusive = about 30% to 50%; inactive = below about 30%; further: 0% is about no effect; the text of the record puts the active cut at 80%
Target sequence (Q9GZU1 whole entry, looked up): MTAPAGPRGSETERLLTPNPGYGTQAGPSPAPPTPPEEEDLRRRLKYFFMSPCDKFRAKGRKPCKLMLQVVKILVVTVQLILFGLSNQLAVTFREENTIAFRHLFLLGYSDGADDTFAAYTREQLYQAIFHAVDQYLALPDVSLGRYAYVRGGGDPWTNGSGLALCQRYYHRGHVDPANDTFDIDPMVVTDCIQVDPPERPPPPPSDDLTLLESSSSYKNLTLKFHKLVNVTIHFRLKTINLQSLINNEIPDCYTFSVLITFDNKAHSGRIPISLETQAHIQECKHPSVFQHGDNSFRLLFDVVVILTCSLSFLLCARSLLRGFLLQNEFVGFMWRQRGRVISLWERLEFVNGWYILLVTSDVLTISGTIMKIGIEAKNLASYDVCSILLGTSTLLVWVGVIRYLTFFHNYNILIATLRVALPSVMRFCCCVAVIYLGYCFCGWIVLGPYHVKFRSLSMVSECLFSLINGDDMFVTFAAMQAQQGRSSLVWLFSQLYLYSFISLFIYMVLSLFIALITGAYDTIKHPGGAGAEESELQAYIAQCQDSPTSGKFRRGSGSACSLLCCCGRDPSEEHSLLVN
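Tetracycline-induced TRPML1-DL cells are seeded and incubated overnight before loading with a no-wash Ca2+ dye and quencher. Agonist activity is taken from the 110 s fluorescence read following compound pin-transfer on an FDSS, before EC80 54-4 challenge.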
D2 agonist – agonists of human D2 dopamine receptor (beta-arrestin). DiscoveRx PathHunter D2 beta-arrestin, luminescence, 90 min; 100% = 57 uM dopamine signal. P14416. hit rate 0.084% among 360,000. activation, % (test concentration not listed). AID 624465; in the data active = activation above about 40%; inconclusive = about 15% to 40%; inactive = below about 15%; further: compound concentration not given in the record; the text of the record calls up to 30% inactive
Target sequence (P14416 whole entry, looked up): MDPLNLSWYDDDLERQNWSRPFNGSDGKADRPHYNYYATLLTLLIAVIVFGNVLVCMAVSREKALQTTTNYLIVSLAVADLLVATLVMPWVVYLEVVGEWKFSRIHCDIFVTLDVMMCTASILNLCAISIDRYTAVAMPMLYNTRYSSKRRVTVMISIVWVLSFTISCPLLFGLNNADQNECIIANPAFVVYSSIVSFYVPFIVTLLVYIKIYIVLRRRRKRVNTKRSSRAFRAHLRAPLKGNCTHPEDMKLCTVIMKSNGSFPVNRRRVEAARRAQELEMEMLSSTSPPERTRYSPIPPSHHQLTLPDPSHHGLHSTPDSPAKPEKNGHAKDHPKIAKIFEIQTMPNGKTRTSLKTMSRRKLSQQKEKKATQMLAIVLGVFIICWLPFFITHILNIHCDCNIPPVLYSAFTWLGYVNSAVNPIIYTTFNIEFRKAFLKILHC
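Agonist mode: compounds alone added to overnight-plated D2 PathHunter cells for 90 min at 37 C, with 57 uM final dopamine (EC100) defining full response. Beta-arrestin recruitment detected by chemiluminescent reagent, read after 1 h at ambient temperature.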
CtBP-E1A inh – blocks the CtBP interaction with E1A | activity change, % (test concentration not listed) | hit rate 0.49% among 340,000 | AlphaScreen GST-E1A/His-CtBP binding, 1536-well; hits give low values; control for the full effect not named in the record; in the data active means activity change below about -65%; inconclusive means about -30% to -65%; inactive means above about -30%; further: on the % scale 0 is the no-effect control and ±100 the full control effect; compound concentration not given in the record
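GST-E1A and His-tagged CtBP (125 nM each as 5X stock) were preincubated with pin-transferred compound for 2 h at 37 °C in the dark, then glutathione donor and nickel acceptor beads were added for 1 h before AlphaScreen reading.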
Six1-Eya2 inh – Six1/Eya2 interaction inhibition | activity change, % (no concentration beside the values) | Q15475+O00167 | AID 651725 | AlphaScreen GST-Six1/His-Eya2 binding, biochemical; hits give low values; control for the full effect not named in the record | hit rate 0.56% among 360,000; in the data active = activity change below about -65%; inconclusive = about -30% to -65%; inactive = above about -30%; further: on the % scale 0 is the no-effect control and ±100 the full control effect; compound concentration not given in the record
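AlphaScreen luminescence read after one hour at 37 °C in darkness. Pin-transferred compounds met GST-Six1 and His-Eya2 protein (5X stock 250 nM/500 nM) plus glutathione donor and Ni-chelate acceptor beads (5X, 50 ug/mL).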
D2 PAM – human D2 receptor positive allosteric modulation; P14416; DiscoveRx D2 beta-arrestin cells, luminescence, 90 min; 100% = 57 uM dopamine signal; potentiation, % (no concentration beside the values); hit rate 0.23% among 360,000; active = potentiation of 50% or more; inconclusive = 30% to 50%; inactive = 30% or less;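 further: compound concentration not given in the record; tested on top of an EC20 dose of dopamine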
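PathHunter D2 cells, attached overnight at 37 deg C, received compound in DMSO plus dopamine at EC20 (50 nM final) for 90 min at 37 deg C. Beta-arrestin recruitment was read as luminescence after 1 h with detection reagent at ambient temperature.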
Numbers without * were called inactive; ? = inconclusive; . = no result given; [ ] = dose if it differs, or a comment.

SMILES	PINK1 expr mod	TRPML1 agonist	D2 agonist	CtBP-E1A inh	Six1-Eya2 inh	D2 PAM
COc1ccc(N(C(=O)c2snc(C(N)=O)c2N)C(C(=O)NC2CCCC2)c2ccc(F)cc2)c(OC)c1 (configuration not stated)	20%	1.1	0.4	1	1	-2
C=CCN(c1ccccc1)S(=O)(=O)c1ccc2c(c1)NC(=O)C(C)S2 (configuration not stated)	-1.6%	0.1	0.0	-4	-2	-11
Cc1ccc(C2CC(c3cccs3)=NN2C(=O)c2ccc(Br)o2)cc1 (configuration not stated)	-3.5%	0.8	-2.6	-2	-2	-7
O=C(c1cc(=O)c2ccccc2o1)N1CCCc2ccccc21	0.2%	0.2	-4.3	-1	-2	-16
Cc1cc(C(=O)OCC(=O)Nc2ccccc2[N+](=O)[O-])c2ccccc2n1	7.3%	-0.7	-2.1	12	0	-6
CCOc1ccc(CCNC(=O)COC(=O)C2CCN(S(=O)(=O)c3ccc(C)c(C)c3)CC2)cc1OCC	0.4%	0.5	-2.9	0	-5	-2
COc1ccc(N(C)C(=O)Cc2c(C(=O)O)n(C)c3ccccc23)cc1	0.6%	-0.7	-6.4	.	1	-4
Cc1cc(-c2ccc(Br)s2)nc(-n2cccc2)n1	7.6%	0.4	0.2	-2	?	2
Cc1cc(Cl)nc(Cl)c1C(=O)NC(=O)NCCC(C)C	0.2%	-0.2	-6.7	-13	10	-3
Brc1cnc2nc(SC/C=C/c3ccccc3)[nH]c2c1	3.1%	1.4	7.6	-10	0	-11
COc1ccccc1NC(=O)Nc1ccc(S(=O)(=O)Nc2onc(C)c2C)cc1	1.0%	-0.3	1.9	34	-5	-20
COc1ccc(S(=O)(=O)O/N=C2\CCSc3ccc(C)cc32)cc1	0.4%	-1.0	12	3	0	72*
CN(Cc1cccs1)c1ncnc2sccc12	-0.1%	3.6	-1.4	8	2	-6
CC(C)CC(COCc1ccc(Cl)cc1)N1CCN(C(=O)c2cccc(C(F)(F)F)c2)CCC1=O (configuration not stated)	30%	0.1	4.1	4	1	-1
COc1ccc(NC(=O)CN(C)C(=O)c2ccc3c(c2)OCCO3)cc1	1.6%	-0.4	-1.7	-1	2	0
COc1cccc(-c2ccc(=O)n(CC(=O)NCCN3CCOCC3)n2)c1	13%[38.3 µM]	-0.5	-0.8	9	2	-2
COc1ccc(CN2CCC3CC2c2cc(Cl)ccc23)cc1 (configuration not stated)	11%	1.5	-1.1	-7	-8	-15
Cc1ccc(Cl)cc1NC(=O)c1ccccc1OCC(=O)Nc1ccc(Cl)cc1	0.2%	1.9	-1.7	.	4	-6
O=C(NCc1ccc(F)cc1)c1noc2c1CCCCC2	-0.9%[38.3 µM]	0.4	-2.1	7	8	-6
O=C(COC(=O)c1ccco1)Nc1nnc(-c2ccccc2)o1	4.6%	1.1	0.6	?	?	-1
O=C1COc2ccc(C(=O)NCc3ccco3)cc2N1	0.2%[38.3 µM]	0.1	-1.6	-9	-1	-13
CC1(C(=O)NS(=O)(=O)c2ccc(Cl)cc2)CCN1C(=O)CC1CC1 (configuration not stated)	0.3%	0.1	-4.2	6	2	-1
Cc1cccc(C(P(=O)(c2ccccc2)c2ccccc2)P(=O)(c2ccccc2)c2ccccc2)n1	-1.3%	-0.7	-2.4	-9	1	-18
CSc1ccccc1NC(=O)N1CCC(CO)(CC2CCCCO2)CC1 (configuration not stated)	1.3%	-0.6	-3.9	3	-7	1
Cn1c(SCC(=O)Nc2ncc(C(F)(F)F)cc2Cl)nnc1-c1ccc(Cl)cc1	1.4%	1.1	-4.9	0	-4	-16
CC(C)Cn1c2c(c(=O)[nH]c1=O)C(NS(=O)(=O)c1ccc(Cl)cc1)(C(F)(F)F)C(=O)N2 (configuration not stated)	1.7%	-0.1	-3.8	0	-3	-7
Cn1ncc2c(Nc3ccc4ccccc4c3)ncnc21	.	0.4	-1.4	6	2	6
CC(C)c1ccc(C=NNc2ccc([N+](=O)[O-])cn2)cc1	8.8%	-0.3	2.1	1	11	-6
Cc1sc2ncn(CC(=O)NCCCC(=O)Nc3ccc(C(C)C)cc3)c(=O)c2c1C	2.7%	-0.6	-0.6	9	6	-6
CC1(c2nnc(Cc3ccccc3)o2)CC(c2ccc(Cl)cc2)=NO1 (configuration not stated)	0.2%	-0.4	-1.8	-24	12	-13
CC1CC(C)CN(S(=O)(=O)c2ccc3c(c2)CC(=O)N3)C1 (configuration not stated)	-0.6%	-0.6	-3.8	.	7	-7
Cc1ccc(S(=O)(=O)NC(CC(=O)NC2CCCC2)c2ccco2)cc1 (configuration not stated)	0.7%	-0.5	0.4	3	6	-2
COc1ccc(/C=C/C(=O)NCCCNC(=O)/C=C/c2ccc(OC)c(OC)c2)cc1OC	0.1%	1.5	7.9	-2	-24	-2
O=C(CCC(=O)c1ccccc1)NC1CCCN(Cc2ccccc2F)C1 (configuration not stated)	0.0%	0.7	-5.9	24	4	-7
NS(=O)(=O)c1ccc(CCn2c(=S)[nH]c3ccc(F)cc3c2=O)cc1	-1.1%	3.1	8.1	.	1	10
O=C(Nc1ccc(Cl)cc1)c1ccc2c(c1)S(=O)(=O)c1ccccc1C2=O	1.2%	-0.3	-2.5	3	-3	-11
CC(C)(Oc1ccc(Cl)cc1)C(=O)N1CCN(c2ccccn2)CC1	-0.4%	-1.8	-3.3	3	0	-20
Cc1ccc(S(=O)(=O)/N=C2/NC(=O)/C(=C/c3ccccn3)S2)cc1	0.7%	-0.2	-1.2	0	5	-7
Cc1cc(C)c(NC(=O)CN(C)C(=O)C2CC(=O)N(c3cccc4ccccc34)C2)c(C)c1 (configuration not stated)	-0.4%	1.2	-4.1	-11	13	-4
CCOc1nsc(OCC)n1	1.9%	1.2	1.1	-4	2	-2

D2 PAM: what is marked active above
SMILES,PINK1 expr mod,D2 agonist,CtBP-E1A inh,Six1-Eya2 inh,D2 PAM
COc1ccc(S(=O)(=O)O/N=C2\CCSc3ccc(C)cc32)cc1,0.4%,12,3,0,72*

Remaining list, next part
SMILES	PINK1 expr mod	TRPML1 agonist	D2 agonist	CtBP-E1A inh	Six1-Eya2 inh	D2 PAM
COc1ccc(C(=O)C=Cc2ccc(OCc3ccccc3)c(OC)c2)cc1OC	-1.4%	2.6	-0.8	-1	-2	-4
Cc1ccccc1-c1nnc(CN2CCN(C(=O)c3ccco3)CC2)o1	-1.9%	0.2	5.3	-16	6	-4
C=C(C)Cn1c(CNC(C)=O)nc2ccccc21	0.8%	-0.6	-5.5	4	1	-3
COC(=O)c1cc(S(=O)(=O)Nc2ccc(C)cn2)c[nH]1	-0.5%	0.8	-4.2	.	12	-5
CCN(CC)c1ccc(/C=C/C(=O)C2C(=O)C=C(C)OC2=O)cc1 (configuration not stated)	?	127*	-1.3	-9	-14	-1
Cc1ccc(CNC(=O)C2CCC(=O)N2C(C)C)cc1 (configuration not stated)	2.1%	-0.2	0.2	9	0	2
COC(=O)c1sc2ccccc2c1N	-0.9%	0.4	-1.4	4	5	30
CC(C(=O)N1CCOCC1)n1cc([N+](=O)[O-])cn1 (configuration not stated)	0.6%	-1.1	-3.4	-6	5	3
O=C(O)CCC(=O)Nc1cccc(C(=O)c2ccccc2)c1	0.0%	0.9	0.2	.	4	-7
COc1ccc(NC(=O)C2CC(=O)N=C(N)S2)cc1 (configuration not stated)	2.6%	-0.3	-3.9	18	0	-4
CCOc1ccc(S(=O)(=O)N(CC(=O)NCC(F)(F)F)Cc2ccco2)cc1	13%	4.4	-1.2	-2	0	-3
Cc1ccc(CNC(=O)c2ccc(S(=O)(=O)N3CCCCC3)cc2)cc1	11%	-0.1	-1.5	5	2	-19
O=C(C1CCC(CNS(=O)(=O)c2cccc3cccnc23)CC1)N1CCc2ccccc21 (configuration not stated)	7.4%	1.8	-2.9	-7	-10	4
CC(C)(C)SC(=O)C[C@@H]1NS(=O)(=O)OC2CCCCC21 (some centres not stated)	2.0%	1.2	-0.6	-16	-11	-8
O=C(COC(=O)/C=C/c1ccc(S(=O)(=O)N2CCOCC2)cc1)NCc1ccc(F)cc1	3.3%	-0.1	-2.9	1	4	-1
CC(=O)N1CCc2cc(S(=O)(=O)CCC(=O)Nc3cccc(F)c3)ccc21	-0.2%	0.0	-5.2	-2	-2	-13
Cc1ccc(NC(=O)COC(=O)c2ccco2)cc1	-1.2%	0.4	-4.4	0	-3	-4
O=C(Nc1ccc(N2CCOCC2)cc1)c1c(F)cccc1Cl	1.2%	-1.4	-2.7	-13	2	-5
CCC1CCc2sc(C(=O)NCC3CCCO3)cc2C1 (configuration not stated)	0.7%	-0.7	0.3	.	-3	-5
Cc1cccc(NC(=O)c2cnccn2)c1	-0.9%	0.7	2.2	7	0	-3

Some entries already given, reduced to CtBP-E1A inh:
| Structure | CtBP-E1A inh |
| --- | --- |
| COc1ccc(NC(=O)C2CC(=O)N=C(N)S2)cc1 (configuration not stated) | 18 |
| CCOc1ccc(S(=O)(=O)N(CC(=O)NCC(F)(F)F)Cc2ccco2)cc1 | -2 |
| Cc1ccc(CNC(=O)c2ccc(S(=O)(=O)N3CCCCC3)cc2)cc1 | 5 |

Carrying on.
SMILES	PINK1 expr mod	TRPML1 agonist	D2 agonist	CtBP-E1A inh	Six1-Eya2 inh	D2 PAM
CC(OC(=O)Cn1cnc2ccccc2c1=O)C(=O)NCc1ccccc1 (configuration not stated)	3.9%	0.4	-1.2	5	8	-3
Cc1ccc(OCC(=O)N(Cc2ccc(N(C)C)cc2)C2CCS(=O)(=O)C2)cc1 (configuration not stated)	0.1%	-0.2	3.6	1	-1	-19
Cc1ccccc1C(=O)NC1CCS(=O)(=O)C1 (configuration not stated)	-0.2%	-0.7	0.2	-1	-2	16
O=C1/C(=C/c2ccco2)N=C(N2CCCCC2)N1c1ccccc1	2.4%	-0.3	0.3	19	10	-1
CO/N=C/c1c(C(=O)OC)nn(-c2ccccc2)c1Cl	0.1%	1.3	-3.9	.	6	-1
O=C(Nc1ccsc1C(=O)NC1CC1)c1ccccc1	-1.0%	-0.5	-4.0	-4	-4	-4
CCCCNC(=O)c1c(N)[nH]c(C(=O)c2ccccc2)c1-c1ccc(Cl)cc1	0.4%	0.0	.	2	-4	.
CCN(CC(=O)NCc1ccc(Cl)cc1)C(=O)C1CCN(S(=O)(=O)c2ccc(OC)c(OC)c2)CC1	-1.8%	-0.2	2.8	-24	13	-8
O=C(CN(Cc1ccc(F)cc1)C(=O)CNS(=O)(=O)c1ccccc1)NCc1ccco1	1.2%	-0.9	-15	17	3	-3
COc1cc(/C=N/NC(N)=O)ccc1OCC(=O)Nc1cc(C)c(C)cc1Br	5.4%	1.2	-2.2	4	2	-9
CC(=O)Nc1c(C(=O)N2CCOCC2)cnn1-c1ccc(C)c(C)c1	-0.9%	-0.5	0.4	-8	2	22

A draw from above in order of SMILES length, rising.
SMILES	PINK1 expr mod	TRPML1 agonist	D2 agonist	CtBP-E1A inh	Six1-Eya2 inh	D2 PAM
Cc1ccccc1C(=O)NC1CCS(=O)(=O)C1 (configuration not stated)	-0.2%	-0.7	0.2	-1	-2	16
O=C1/C(=C/c2ccco2)N=C(N2CCCCC2)N1c1ccccc1	2.4%	-0.3	0.3	19	10	-1
CC(OC(=O)Cn1cnc2ccccc2c1=O)C(=O)NCc1ccccc1 (configuration not stated)	3.9%	0.4	-1.2	5	8	-3
